Source: PubChem BioAssay (National Center for Advancing Translational Sciences (NCATS))
TRPML1 ag: agonists of human TRPML1 channel; Q9GZU1; TRPML1-expressing cells, Ca2+ dye fluorescence, FDSS; host cell line not named in the record; reference of the full effect not given here; activation, % (concentration not given with the values); 410,000 tested, 0.12% active; AID 624414; in the data active = activation above about 50%; inconclusive = about 30% to 50%; inactive = below about 30%; also: 0% is about no effect; the text of the record puts the active cut at 80%
Target sequence (Q9GZU1 whole entry, looked up): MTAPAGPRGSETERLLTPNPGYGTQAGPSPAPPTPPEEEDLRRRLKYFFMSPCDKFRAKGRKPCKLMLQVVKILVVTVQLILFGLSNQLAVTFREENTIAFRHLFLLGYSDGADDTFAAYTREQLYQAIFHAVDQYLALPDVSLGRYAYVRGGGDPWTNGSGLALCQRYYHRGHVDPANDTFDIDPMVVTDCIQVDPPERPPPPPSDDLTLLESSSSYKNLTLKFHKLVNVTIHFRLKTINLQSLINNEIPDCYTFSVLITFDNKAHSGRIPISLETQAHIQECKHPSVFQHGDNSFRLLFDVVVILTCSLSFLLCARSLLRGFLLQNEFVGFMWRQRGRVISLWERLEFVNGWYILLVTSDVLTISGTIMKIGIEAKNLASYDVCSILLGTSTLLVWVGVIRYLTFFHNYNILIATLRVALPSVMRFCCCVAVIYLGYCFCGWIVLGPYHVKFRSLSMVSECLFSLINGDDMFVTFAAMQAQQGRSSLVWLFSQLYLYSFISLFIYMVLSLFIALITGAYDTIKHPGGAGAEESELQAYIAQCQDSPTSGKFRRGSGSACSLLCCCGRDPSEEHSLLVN
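Cells: TRPML1-DL, 1X Tet inducer, ~16 h at 37 degrees C/5% CO2. Dye: ABD Ca8 no-wash + quencher, 45-90 min RT. Read: 10 s baseline, compound add, 110 s agonist phase; 54-4 EC80 (4uM final), 110 s antagonist phase.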
ClpP mod: qHTS Assay for Activators of ClpP | Potency, µM (highest dose often 57.5 µM), inactives show at the top dose activity change, negative = active | purified B. subtilis ClpP, FRET peptide cleavage, 20 min | 340,000 tested, 1.9% active | ATP-dependent Clp protease proteolytic subunit (Bacillus subtilis (strain 168)), P80244; active = well fitted falling curve with a large enough effect; inconclusive = small, poorly fitted or top-dose-only effect; inactive = no such curve, though single readings can be large or run the other way; also: potency is read from the fitted curve at half-maximal effect; the source files actives as falling curves though it sought activators and does not explain the sign; nearly all actives have a fitted effect of over 65% in size; many hits overshoot -100%
Target sequence (P80244 whole entry, looked up): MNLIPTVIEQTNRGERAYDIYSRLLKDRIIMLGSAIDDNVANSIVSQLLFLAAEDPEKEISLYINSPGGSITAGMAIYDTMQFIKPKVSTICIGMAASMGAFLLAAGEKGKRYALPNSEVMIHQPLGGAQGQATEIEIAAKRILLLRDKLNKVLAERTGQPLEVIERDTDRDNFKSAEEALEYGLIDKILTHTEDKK
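ClpP 10 microg/mL final, pH 8 Tris/KCl buffer with BSA, glycerol, Tween-20; compound pinned in; FRET-FV substrate; RT 20 min; Ex320/Em430; ΔFRET vs ADEP 5.8 microM, DMSO, no enzyme.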
gsp antagonist: gsp mutant antagonism; gsp-mutant cells, cAMP HTRF, 30 min; control for the full effect not named in the record; 340,000 tested, 0.4% active; Potency, µM (top dose mostly 76.9 µM), inactives show top-dose activity change, negative = inhibition, hits mostly inhibitors; AID 624288; active = falling curve of any shape with a large fitted effect; inconclusive = falling curve, mostly with a smaller effect; inactive = flat or rising curve; cell line not stated here;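 also: intracellular cAMP measured with PDE inhibitor Ro 20-1724 present during compound exposure; potency is read from the fitted curve at half-maximal effect; % is scaled to controls: 0 for no effect and ±100 for the full control effect; nearly all actives have a fitted effect of over 65% in size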
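G418-selected cells were plated in DMEM/10% FBS for 16-24 h at 37C, then treated with compounds plus the PDE inhibitor […] (300 uM solution added) for 30 min at 37C. Intracellular cAMP was measured by HTRF after 30 min lysis at room temperature.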
Menin MLL FP FL: menin-MLL binding inhibition, fluorescein peptide. Fluorescence polarization, fluorescein-MLL peptide displacement from menin. FP activity change, % at 61.4 µM. 290,000 tested, under 10 active; inconclusive = falling polarisation curve, or a change in total fluorescence; inactive = total fluorescence flat and polarisation flat or rising; no compound was filed as active; the % refers to the polarisation; negative = inhibition;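 also: % of control where 0% means no effect; inhibitors lower the polarisation; unlabelled MLL peptide was the positive control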
gsp ag: activates gsp, the McCune-Albright syndrome mutation. gsp mutant cells, cAMP HTRF, 30 min; control for the full effect not named in the record. AID 624287. Potency, µM (titrated, usually from 76.9 µM), without a hit: at the highest dose activation (cAMP increase), actives largely listed as activators. 340,000 tested, 0.13% active; active = well fitted activation curve with a large enough effect; inconclusive = small, poorly fitted or top-dose-only effect, or another doubt; inactive = no such curve, though single readings can be large or run the other way; cell line not stated here;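 also: phosphodiesterase inhibitor Ro 20-1724 added with compounds to block cAMP breakdown; potency is read from the fitted curve at half-maximal effect; nearly all actives have a fitted effect of over 60% in size; about a fifth of the inactives were tested at one dose only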
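Cells stably selected in G418 were plated at 2000/well, grown 16-24 hr, then given compounds in DMSO with the PDE inhibitor […] (300 uM solution added) for 30 min at 37C; cAMP was read by HTRF.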
TRPML1 inh: inhibitors of human TRPML1 channel. TRPML1-inducible cells, Ca2+ dye fluorescence, FDSS; hits give low values; inhibition of EC80 agonist-evoked calcium signal. 390,000 tested, 0.02% active. activity change, negative = inhibition, % (test concentration not listed). Q9GZU1. AID 624415; in the data active means activity change below about -50%; inconclusive means about -30% to -50%; inactive means above about -30%;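 also: stimulus is agonist 54-4 at its EC80 concentration; % is scaled to controls: 0 for no effect and ±100 for the full control effect; compound concentration not given in the record; the text of the record puts the active cut at -80%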
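TRPML1-DL cells, Tet-induced overnight (~16 h, 37 °C) at 1,500 cells/well, were loaded with Ca8 no-wash dye plus quencher for 45-90 min at room temperature. Compounds were pinned during FDSS kinetic reading; agonist 54-4 at EC80 (4 uM final) then added.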
Numbers without * were called inactive; ? = inconclusive; . = no result given; [ ] = remark or other dose.

#	structure	TRPML1 ag	ClpP mod	gsp antagonist	Menin MLL FP FL	gsp ag	TRPML1 inh
1	Cc1ccc(-n2nc3c(N4CCCC(C(=O)NCc5ccc(Cl)cc5)C4)nnc(C)c3c2C)cc1 (stereo unspecified)	-0.1	-6.9%	.	.	.	35.7
2	Cc1c(OC(C)C(=O)NCCCN2CCCC2=O)ccc2c3c(c(=O)oc12)CCCC3 (stereo unspecified)	-1.1	3.4%	-4.3%	2.9	22.8%	1.6
3	C=CCN1C(=Nc2ccccc2)SC/C1=C\C(=O)OC	2.1	-0.1%	-24.1%	-0.2	-1.2%	-7.8
4	O=c1c(S(=O)(=O)c2ccccc2)cn(Cc2cccc(F)c2)c2cc(N3CCCC3)c(F)cc12	0.4	-9.3%	.	.	.	6.2
5	CSc1cnn(Cc2ccccc2)c(=O)c1SCc1ccccc1	4.7	-1.9%	?	-0.5	29.4%	82.5
6	COc1ccc2cc(CNc3ccc(OC)c(OC)c3)c(=O)n(CC(=O)Nc3ccc(C)cc3)c2c1	4.2	2.9%	.	.	.	-9.1
7	CCOC(=O)c1c(C)oc2ccc(N(C(=O)Oc3ccccc3)S(=O)(=O)c3ccccc3)cc12	0.3	0.3%	.	.	.	2.9
8	O=C(O)c1cccc(NC(=S)NCc2ccccc2)c1	-0.4	.	4.2%	0.2	-1.8%[15.4 µM]	4.6
9	Cc1cccc(NC(=O)c2nc[nH]c2C(=O)NC[C@H](C)O)c1	-0.2	1.8%	.	.	-67.3%[inhibitor]	12.3
10	Cc1cccnc1NC(=O)C1CCN(S(=O)(=O)c2ccc3ccccc3c2)CC1	0.3	-2.3%	12.4%	.	-2.9%[15.4 µM]	4.1
11	Cc1cccc(OCC(=O)Nc2ccc(N3CCCC3)cc2)c1C	0.3	-1.6%	1.5%	-1.2	-22.3%	-8.6
12	CC(=O)c1ccc(OCc2cccc(C(F)(F)F)c2)cc1O	3.8	.	-8.1%	0.8	8.1%[15.4 µM]	27.5
13	CCCCCC(=O)N1CC2(CC(c3cccc(NC(=O)CC)c3)=NO2)C[C@H]1C(N)=O (stereo partly specified)	1.1	-0.9%	13.3%	1.5	.	35.0
14	CC(=O)NC(CCS(C)(=O)=O)C(=O)Nc1nccs1 (stereo unspecified)	-1.0	-1.4%	-2.6%	1.2	-24.8%	-8.3
15	c1ccc(-c2ccc(-c3cnc4n3CCCCC4)cc2)cc1	0.5	?	-8.6%	0.0	0.0%	-6.0
16	CNc1nc(Oc2ccccc2C(=O)OC)nc(SC)n1	-0.6	-1.7%	12.1%	4.9	?	-4.4
17	CCOC(=O)c1ccc(NC(=O)CN2C(=O)NC3(CCCCCC3)C2=O)cc1	-0.8	1.3%	-3.7%	-0.7	25.1%	1.3
18	Cc1ccc2c(c1)c1c(c(=O)n(Cc3ccccc3)c(=O)n1Cc1ccccc1F)n2C	0.4	?	.	.	.	3.9
19	CC(C)NC(=O)N1CCCN(c2nc3ccc(Cl)cc3s2)CC1	0.9	-0.6%	-8.3%	1.0	-1.8%[15.4 µM]	-23.9
20	CC(C)CCC(CCN1CCCC1)c1ccc2c(c1)OCO2 (stereo unspecified)	0.3	.	6.7%	-0.6	14.5%[15.4 µM]	-13.3
21	CCCc1sc(N/N=C/c2ccccn2)nc1-c1ccc(Br)cc1	1.0	-1.8%	-8.6%	1.0	-9.5%	9.9
22	COc1ccccc1CNC(=O)Cn1ncc2c(C)n(Cc3ccccc3Cl)c(C)c2c1=O	0.3	-24.1%	.	.	.	8.2
23	Cc1nnc2c3ccccc3ccn12	0.7	-7.0%	3.8%	.	?	8.9
24	c1ccc(-c2nnc3n2NC(c2ccc4c(c2)OCO4)S3)cc1 (stereo unspecified)	3.6	8.3%	18.4%	1.3	11.9%	-18.9
25	O=c1nc(NCc2ccco2)sc2ncccc12	2.4	0.5%	15.5%	0.2	?	18.9
26	CC(C)c1cccc(C(C)C)c1NC(=S)Nc1cccc(Cl)c1	-0.3	.	5.8%	1.0	-16.5%[15.4 µM]	8.1
27	COc1ccccc1-c1nnc(NC(=O)c2ccc3ncsc3c2)o1	2.2	1.0%	-8.1%	3.2	8.9%	8.2
28	CCNC(=O)COC(=O)c1cc(C)nc2ccccc12	0.4	.	9.6%	-8.9	4.4%[15.4 µM]	-29.2
29	O=C(Nc1cccc(F)c1)/C(=C\c1cccnc1)NC(=O)c1cccs1	-0.7	0.6%	6.6%	3.3	15.7%	-3.6
30	Cc1ccc(C)c(NC(=S)c2ccccn2)c1	-0.8	1.1%	-8.6%	2.6	-18.1%	-16.9
31	COc1ccc(N2CCCC2)c(NC(=O)COc2ccccc2Cl)c1	-0.3	.	3.1%	1.4	-1.6%[15.4 µM]	-5.2
32	CC12C(=O)N(c3nccs3)C(=O)C1(C)C1CCC2O1 (stereo unspecified)	0.4	-0.7%	6.3%	.	-36.5%[15.4 µM]	-6.7
33	CCC(CC)C(=O)Nc1ccc2nc(SCC(=O)N3CCc4ccccc43)sc2c1	0.1	-0.7%	.	.	.	8.7
34	COc1ccc(C(=O)Nc2ccc(S(=O)(=O)N3CCOCC3)cc2)cc1OC	1.3	-4.2%	7.8%	0.4	-32.7%[inhibitor]	11.1
35	CC(=O)c1cccc(CN2CCC(n3nccc3NC(=O)CCc3ccccc3)CC2)c1	-0.2	-2.1%	-6.3%	.	10.7%[15.4 µM]	-1.4
36	Cn1cc(C=C2C(=O)CC(C)(C)CC2=O)c2ccccc21	0.1	.	-5.7%	0.5	-10.0%	-20.5
37	O=C(Nc1ccon1)C12CC3CC(C1)CC(n1cnc([N+](=O)[O-])n1)(C3)C2	0.3	-2.9%	-0.4%	-0.5	6.1%	11.5
38	Cc1ccccc1Nc1nc(N)nc(COC(=O)CC2CC3CCC2C3)n1 (stereo unspecified)	2.1	0.8%	-6.8%	4.2	1.6%	-14.3
39	Cc1ccc2nc(Cl)c3cc(C(=O)N4CCCCC4C)sc3c2c1 (stereo unspecified)	1.0	-2.1%	.	.	.	3.2
40	C=CCNc1nc(N)c(C(=C(C#N)C#N)c2ccccc2)s1	0.9	-1.0%	6.5%	13.1	6.6%[15.4 µM]	-12.8
41	Cc1ccc(C23CC4CC(CC(C(=O)OCC(=O)NC5CCS(=O)(=O)C5)(C4)C2)C3)cc1 (stereo unspecified)	0.1	-1.2%	-9.1%	5.9	0.0%	20.8
42	COCCOC(=O)C1=C(C)Nc2ncnn2C1c1ccco1 (stereo unspecified)	-0.4	.	10.9%	1.8	-8.9%[15.4 µM]	-15.4
43	O=C(c1ccccc1)c1ccc2nc(N3CCN(c4ccccc4)CC3)c3nncn3c2c1	0.3	-5.1%	.	.	.	30.3
44	Cc1cc(OCC(=O)NC2CC(C)(C)NC(C)(C)C2)c2c(C)c(C)c(=O)oc2c1	-0.9	4.0%	10.4%	-5.1	-3.7%	-10.9
45	COc1ccc(C(CNC(=O)c2oc3ccc(C)cc3c2C)N2CCCCC2)cc1 (stereo unspecified)	-1.2	-2.4%	11.9%	1.6	2.3%	-9.9
46	Cc1ccc(Nc2nc(C)cc(C)n2)c(C(=O)O)c1	-1.3	-7.7%	.	.	.	-26.3
47	Cc1cccc(NC(=O)c2cccc(S(=O)(=O)N3CCc4ccccc4C3)c2)n1	0.2	-8.2%	-26.8%	.	4.1%	-3.4
48	Cc1cc2nc(-c3ccncc3)cc(C(F)(F)F)n2n1	-0.4	1.3%	-0.1%	1.5	11.6%[15.4 µM]	20.0
49	CCOc1ccc(NC(=O)Cn2c(=O)n(-c3cccc(OC)c3)c(=O)c3c4c(sc32)CCCC4)cc1	0.7	-0.3%	.	.	.	11.0
50	CCO[C@@H]1OC(C(=O)N2CCN(Cc3ccc4c(c3)OCO4)CC2)=C[C@H](c2cn(C(C)=O)c3ccccc23)[C@H]1CCCO	0.4	-0.6%	-23.8%	-0.3	.	-2.6

The results go on.
#	structure	TRPML1 ag	ClpP mod	gsp antagonist	Menin MLL FP FL	gsp ag	TRPML1 inh
51	COCCn1c(=NC(=O)/C=C/c2ccccc2Cl)sc2cc(NC(C)=O)ccc21	-0.1	13.3%	9.8%	-4.0	3.9%	12.0
52	Cc1oc2ccc(O)c(CN(C)Cc3ccccc3)c2c1C(=O)Nc1cccc(C(F)(F)F)c1	0.2	-27.2%	.	.	.	-4.3
53	CCc1ccc(Nc2c([N+](=O)[O-])c(=O)oc3ccccc23)cc1	1.1	-2.2%	-19.7%	3.6	-13.1%[15.4 µM]	23.4
54	CCOC(=O)c1ccc(NC(=O)c2c(-c3c(F)cccc3Cl)noc2C)cc1	4.2	-0.5%	.	.	.	-15.7
55	Cc1ccc(S(=O)(=O)N2CCOCC2)cc1C(=O)Nc1c(C)n(C)n(-c2ccccc2)c1=O	0.0	-0.1%	14.6%	1.6	-2.2%	-5.3
56	CCOc1ccc(CCNC(=O)Cn2nc(CC)n3c(cc4ccccc43)c2=O)cc1	-1.0	-19.9%	.	.	.	7.9
57	C=CCN(C(=O)c1csnn1)C(C(=O)NCc1ccc(F)cc1)c1sccc1C (stereo unspecified)	2.3	.	-4.0%	1.8	-17.4%	16.3
58	Cc1cccc(-c2nc(NCCN(C)C)c3ccccc3n2)c1	0.4	0.3%	.	.	-2.9%	7.3
59	COc1ccc(C(CNC(=O)c2ccc(S(=O)(=O)N3CCCC3)cc2)N(C)C)cc1OC (stereo unspecified)	-0.5	-15.5%	3.8%	-8.0	-3.9%[15.4 µM]	-0.8
60	CNC(=S)N/N=C/c1c(C)nn(-c2ccc(F)cc2)c1Cl	1.8	.	16.8%	-1.3	2.7%	11.9
61	CCOC(=O)CSc1nc2cc3c(cc2c(=O)n1CCCCCC(=O)NCc1ccc2c(c1)OCO2)OCO3	1.0	-1.6%	.	.	.	-13.2
62	Cc1ccc(N2CC(NC(=O)c3cc4ccccc4o3)CC2=O)cc1C (stereo unspecified)	-0.9	-1.0%	.	.	.	-0.5
63	Cc1ccc(CC(=O)Nc2cc([N+](=O)[O-])ccc2F)cc1	1.0	1.2%	18.6%	0.0	-33.8%	21.8
64	O=S(=O)(Nc1ccccc1)c1ccc(-c2csnn2)cc1	0.2	.	0.0%	2.9	0.9%[15.4 µM]	-13.5
65	O=C(C1CC1)N1CCN(c2nc3ccc(F)cc3s2)CC1	1.9	0.4%	.	.	.	-14.3
66	CC(C)COC(=O)N(C)C[C@H]1OCc2cnnn2CCCC(=O)N([C@H](C)CO)C[C@@H]1C	-0.8	-1.8%	.	.	-39.4%	-8.9
